ALR inh = inhibitors of human sulfhydryl oxidase ALR; purified ALR, DTT oxidation, H2O2 HRP-luminol luminescence; inhibition, % (concentration not given with the values); 3.8% of 290,000 active;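 active means mean and each replicate at 75% or more; inconclusive means only one of the two met; inactive means neither met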;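 further: stock transfer was 7.5 nL into about 7.5 µL; 0% = neutral wells and 100% = wells with inactivated enzyme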
Target sequence (P55789 whole entry, looked up): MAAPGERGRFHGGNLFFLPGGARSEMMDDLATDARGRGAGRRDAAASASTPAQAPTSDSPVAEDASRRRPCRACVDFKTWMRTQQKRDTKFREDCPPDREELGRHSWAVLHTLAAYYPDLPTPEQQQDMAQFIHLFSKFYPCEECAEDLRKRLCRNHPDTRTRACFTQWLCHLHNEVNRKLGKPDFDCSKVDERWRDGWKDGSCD
Beta cell apopt = blocks beta cell apoptosis. 0.8% of 300,000 active. protection from apoptosis, % (test concentration not listed). AID 435005. INS-1E cytokine-induced death, ATP luminescence, 48 h; percent of positive-control rescue, neutral wells zero;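 active means all replicates at 75% or more, or half of them and the mean; inconclusive means half reach 75% but not the mean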;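 further: 0% = cytokine-treated negative control wells and 100% = positive control rescue; higher means more ATP so stronger rescue from cytokine killing; wells of about 40 µL received 100 nL stock; the first replicate is given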
Ecoli rRNA inh = selective bacterial rRNA inhibition in E. coli | GFP signal change (wild-type ribosome), % (no concentration beside the values) | AID 720706 | E. coli WT GFP vs humanized-ribosome RFP mutants, fluorescence, 24 h; hits give low values; DMSO median 0, no signal -100 | 1.6% of 350,000 active;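 active means significant combined selectivity score with lowered wild-type GFP, culture density cut under 30%, mutant RFP and density less affected; inactive means any of these conditions unmet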; further: one replicate is shown; some compounds called inactive have numbers as strong as hits
T cruzi repl = blocks replication of Trypanosoma cruzi | inhibition, % (no concentration beside the values) | AID 1885 | 1.4% of 300,000 active | T. cruzi beta-gal in NIH3T3, luminescence, 90 h;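 active means mean inhibition across valid replicates above about 55%, limit read from the data; inconclusive means mean below that limit but half or more replicates reach it; inactive means mean below it, under half of replicates reach it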;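 further: signal also drops with host cell toxicity which is not excluded here; 0% = plate median of DMSO wells and 100% = zero luminescence signal; higher percent means less beta-gal luminescence so fewer parasites; stock transfer was 50 nL into about 50 µL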
FGF22 binding = shifts melting point of recombinant human FGF22 | 1.5% of 340,000 active | Q9HCT0 | recombinant FGF22 thermal shift, SYPRO orange fluorescence; percent of sucrose octasulfate shift, DMSO zero | AID 651658 | calls only at 9.99 µM;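 active means melting point raised past a set limit in the mean and every replicate; inconclusive means no clear call; three in four hits are not shown here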
Target sequence (Q9HCT0 whole entry, looked up): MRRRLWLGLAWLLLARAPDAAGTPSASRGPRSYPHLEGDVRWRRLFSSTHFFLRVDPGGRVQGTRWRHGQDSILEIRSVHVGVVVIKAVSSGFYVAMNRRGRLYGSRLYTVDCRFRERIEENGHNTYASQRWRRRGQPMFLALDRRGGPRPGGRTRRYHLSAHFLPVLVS
RanGTP-Impb inh = inhibitors of RanGTP-importin-beta interaction, primary screen, biochemical, FRET, CFP-Ran, YFP-importin-beta, homogeneous | cell-free CFP-Ran/YFP-importin-beta FRET ratio | inhibition, % (test concentration not listed) | 1.1% of 300,000 active;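 active means most replicates above 15%; inconclusive means exactly half above 15%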;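 further: 0% = DMSO wells and 100% = Ran loaded with GDP instead of GTP; wells of about 40 µL received 100 nL stock; the first replicate is given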
Calb FLC = C. albicans growth modulation with fluconazole | growth inhibition, % (test concentration not listed) | C. albicans CaCi-2 (fluconazole-resistant clinical isolate) + fluconazole, Alamar Blue growth, 48 h | 0.57% of 300,000 active | AID 1979;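 active means most replicates above 75%; inconclusive means exactly half above 75%; inactive means most below 75%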;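 further: all wells also contain fluconazole at 8 µg/ml as a sub-toxic cotreatment; 0% = median of DMSO wells and 100% = median of geldanamycin control wells; wells of about 8 µL received 7.5 nL stock; the first replicate is given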
MLL AF4-AF9 inh = MLL-AF4/AF9 protein interaction inhibition | AlphaScreen, biotin-AF4 peptide binding to FLAG-AF9 | 0.47% of 350,000 active | inhibition, % at 10 µM | P42568;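 active means every replicate reaching a set inhibition limit, whatever the replicate mean, cut at about 25% in these data; inconclusive means mean inhibition reaches that limit but some replicates miss it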;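 further: 0% = plate neutral control median and 100% = total signal loss; the record names both 10 and 1 µM as test concentration; the first replicate is given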
Target sequence (P42568 whole entry, looked up): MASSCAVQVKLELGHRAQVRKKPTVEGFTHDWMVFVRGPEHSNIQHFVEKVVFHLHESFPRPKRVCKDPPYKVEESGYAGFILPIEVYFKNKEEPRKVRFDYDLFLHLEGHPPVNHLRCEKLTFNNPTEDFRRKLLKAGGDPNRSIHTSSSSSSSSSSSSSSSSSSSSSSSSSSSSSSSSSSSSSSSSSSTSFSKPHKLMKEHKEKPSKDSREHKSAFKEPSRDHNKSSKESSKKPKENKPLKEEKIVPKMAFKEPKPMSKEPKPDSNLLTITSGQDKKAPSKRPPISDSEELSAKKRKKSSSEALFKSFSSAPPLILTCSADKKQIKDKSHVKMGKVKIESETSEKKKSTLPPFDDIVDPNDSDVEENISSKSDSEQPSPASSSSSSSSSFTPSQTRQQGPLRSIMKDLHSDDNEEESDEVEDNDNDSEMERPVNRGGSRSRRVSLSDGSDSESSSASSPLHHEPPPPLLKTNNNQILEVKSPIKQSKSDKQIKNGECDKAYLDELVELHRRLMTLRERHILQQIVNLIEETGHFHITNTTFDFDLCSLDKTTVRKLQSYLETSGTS
Ecoli rRNA inh OD600 = second read-out of Ecoli rRNA inh, no call of its own (marks repeat the call); OD600 change, %; measured here: OD600 growth;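 optical density of the mix in the first replicate; 0 = DMSO median and -100 = no signal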
Ecoli rRNA inh RFP = further read-out of Ecoli rRNA inh, marked with its call; RFP signal change, %; measured here: RFP humanized mutant strains;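 first replicate; 0 = DMSO median and -100 = no signal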
Numbers without * were called inactive; i = inactive; ? = inconclusive; / = not tested or not shown; & = joins results of further samples. Not all compounds are listed. The share of hits here may be higher or lower than overall.

SMILES | ALR inh | Beta cell apopt | Ecoli rRNA inh | Ecoli rRNA inh OD600 | Ecoli rRNA inh RFP | T cruzi repl | FGF22 binding | RanGTP-Impb inh | Calb FLC | MLL AF4-AF9 inh
Cc1ncoc1C(=O)N1CCCC(C(=O)c2cccc(C(F)(F)F)c2)C1 (stereo not drawn) | / | 0 | 8 | 14 | 4.2 | -3 | i | ? | 0 | -1.6
CC(=O)Nc1ccc(S(=O)(=O)N2CCC(C(=O)NCCC(=O)Nc3nccs3)CC2)cc1 | -1 | 2 | 1 | 2 | -2.1 | -2 | i | 0.0 | / | 2.0
CCN(CCCNC(=O)Cn1ncc2c([nH]c3ccc(C)cc32)c1=O)c1cccc(C)c1 | -2 | -1 | / | / | / | 3 | / | 5.3 | -15 | /
Cc1cccc(-c2noc(CN(C(=O)c3c(-c4ccccc4Cl)noc3C)C(C)C)n2)c1 | -54 | / | -3 | -2 | -3.7 | / | i | / | / | -57
Cc1cc(C)c2c(CN3CCN(C/C=C/c4ccccc4)CC3)cc(=O)oc2c1 | 0 | -7 | / | / | / | 49 | / | -5.8 | 15 | /
Cc1ccc(NC(=O)Cc2ccc(Cl)cc2)nc1 | -5 | 1 | -14 | 0 | 4.3 | 10 | i | 3.4 | -2 | -1.3
c1cnc(N2CCN(c3ccc4ccccc4n3)CC2)nc1 | -6 | 1 | -2 | 12 | -2.0 | 1 | i | 1.4 | 5 | -5.5
O=C(CN1CCCCCCC1)Nc1cc(Cl)cc(Cl)c1 | 28 | 4 | -9 | -23 | 1.0 | 4 | i | 1.2 | -15 | -13
Cc1[nH]nc2c1C(c1ccccn1)N(c1ccc(Br)cc1)C2=O (stereo not drawn) | -1 | 2 | / | / | / | -4 | / | -2.8 | ? | /
COc1ccc(C(=O)N(C)Cc2ccccc2F)cc1S(=O)(=O)N1CCCC1 | -1 | 1 | 0 | -10 | 0.5 | / | i | / | / | -2.4
Cc1cccc(NC(=O)COC(=O)CCc2c[nH]c3ccccc23)c1C | 0 | -5 | -11 | -11 | 5.9 | / | i | / | / | -1.3
Cc1cc(NC(=O)CSCC(=O)Nc2nc3ccc(F)cc3s2)no1 | / | -3 | -1 | -6 | -1.3 | / | i | / | / | 0.1
CNC(=O)c1csc(-c2ccc(C)cc2)n1 | 99* | -1 | / | / | / | 1 | / | 2.6 | 2 | /
COc1ccccc1Oc1ccc(N/C=C/C(=O)c2ccc(C)o2)cc1 | / | 4 | 8 | 1 | -0.9 | 2 | i | -2.6 | -24 | 4.5
CC(C)C(C)NC(=O)COc1ccc(S(=O)(=O)N2CCOCC2)cc1[N+](=O)[O-] (stereo not drawn) | 1 | 3 | / | / | / | -4 | / | 0.7 | ? | /
COc1ccc(NC(=O)N[C@@H](CCSC)C(=O)O)cc1Cl | -10 | -1 | / | / | / | -9 | / | -0.9 | -4 | /
COc1ccccc1C(=O)Nc1ccc2c(c1)nc1n2CCN(Cc2ccccc2)C1 | / | 5 | 18 | -3 | 32 | 27 | i | 1.8 | 37 | -2.4
O=C(CN1CCN(S(=O)(=O)c2ccc(F)c(Cl)c2)CC1)N1CCNC1=O | -1 | -1 | 3 | 9 | -1.0 | / | i | / | / | -2.3
CCOc1ccc([C@@H]2CC=C(C(=O)O)[C@H](c3ccc(F)cc3)N2S(=O)(=O)c2ccc(C)cc2)cc1 | 3 | 0 | -19 | -16 | -5.4 | / | i | / | / | 2.3
Cc1ccc(OCC(O)CN2CCc3ccccc3C2)c(C)c1 (stereo not drawn) | -12 | / | -9 | -12 | -0.8 | 10 | i | 1.5 | 2 | 7.1
O=C(NCCCc1ccccc1)c1cc(COc2ccc(F)cc2Cl)on1 | -3 | -2 | 2 | -32 | 0.9 | 22 | i | 2.6 | -29 | -2.9
O=C(NC1CCOCC1)C1CCC(=O)N(CCc2cccc(F)c2)C1 (stereo not drawn) | -5 | -1 | 5 | 8 | 1.4 | -16 | i | 3.9 | -2 | -1.0
CCOC(=O)c1c(C)oc2ccc(NS(=O)(=O)c3cccs3)cc12 | 0 | -3 | -30* | -18* | 9.9* | -19 | i | 1.1 | 14 | -0.7
CCOC(=O)c1ccc2c(c1)nc(SC(C)C(=O)NCC1CCCO1)n2CC (stereo not drawn) | -1 | -3 | -4 | -6 | 5.3 | / | i | / | / | -6.4
O=c1c2c(nc3nc(COc4ccccc4)[nH]n13)CCC2 | -4 | / | / | / | / | -3 | / | -2.8 | -3 | /
CCOc1ccccc1N(CC(=O)NCCSc1ccccn1)S(=O)(=O)c1ccc(C)cc1 | -7 | 3 | -14 | -18 | 4.2 | 11 | i | -5.4 | -7 | -3.2
COC(=O)c1ccc(C)c(NC(=O)CCCN2C(=O)CN(C)C2=O)c1 | -1 | -1 | 6 | 15 | -0.8 | / | i | / | / | 0.1
CC(=O)NNc1ncnc2c1cnn2-c1ccc(C)c(Cl)c1 | / | 1 | 3 | -14 | -0.2 | -14 | i | -4.4 | 5 | 0.1
Cc1ccc(C(=O)N2N=C3c4ccccc4S(=O)(=O)N3[C@H]2N(C)C)cc1 | -11 | -4 | 8 | 5 | 0.8 | 6 | i | 4.8 | 2 | -1.9
Brc1cc2[nH]cnc2c2ccccc12 | -96 | -21 | -57 | -77 | -33 | -10 | i | 6.8 | 31 | -11

Quoted at random: 2 records from the list, in no set order.
SMILES | ALR inh | Beta cell apopt | Ecoli rRNA inh | Ecoli rRNA inh OD600 | Ecoli rRNA inh RFP | T cruzi repl | FGF22 binding | RanGTP-Impb inh | Calb FLC | MLL AF4-AF9 inh
O=C(NC1CCOCC1)C1CCC(=O)N(CCc2cccc(F)c2)C1 (stereo not drawn) | -5 | -1 | 5 | 8 | 1.4 | -16 | i | 3.9 | -2 | -1.0
Cc1ccc(C(=O)N2N=C3c4ccccc4S(=O)(=O)N3[C@H]2N(C)C)cc1 | -11 | -4 | 8 | 5 | 0.8 | 6 | i | 4.8 | 2 | -1.9

Further records
SMILES | ALR inh | Beta cell apopt | Ecoli rRNA inh | Ecoli rRNA inh OD600 | Ecoli rRNA inh RFP | T cruzi repl | FGF22 binding | RanGTP-Impb inh | Calb FLC | MLL AF4-AF9 inh
C[C@H](CO)N1C[C@H](C)[C@@H](CN(C)S(=O)(=O)c2ccccc2)Oc2ccc(NC(=O)NC3CCCCC3)cc2C1=O | 1 | -4 | -12&-16 | -8&-9 | -0.5&1.5 | / | i | / | / | -0.8&-4.4
COC(=O)c1ccc(CNC(=O)CSC2=NCCS2)cc1 | 9 | -5 | 20 | 14 | 0.4 | 6 | i | 2.6 | -6 | -2.3
N#Cc1c(SCC(=O)Nc2cccc(F)c2)sc2c(O)cc(=O)[nH]c12 | 99* | -3 | -2 | 13 | 13 | -3 | / | -4.3 | 12 | -12
Brc1cc(Br)c2nc(-c3cccs3)ccc2c1 | -5 | -3 | / | / | / | 13 | / | -0.8 | 0 | /
CC(C)N1CCC(N2CCN(Cc3ccc4nonc4c3)CC2CCO)CC1 (stereo not drawn) | -7 | 4 | 4 | 8 | -5.7 | -6 | i | 0.9 | -3 | 3.0
O=[N+]([O-])c1ccccc1N/N=C/c1c[nH]c2ccccc12 | 5 | 11 | / | / | / | -7 | / | -5.1 | 6 | /
c1ccc(-c2nc(NCc3ccco3)c3ccccc3n2)nc1 | 6 | 101* | / | / | / | 49 | / | 0.3 | -21 | /
NCCNC(=O)c1c(NC(=O)c2ccccc2)sc2c1CCCC2 | 57 | -2 | -22* | -15* | -0.2* | 7 | i | 5.1 | -11 | 9.2
COc1cc(OC)cc(C(=O)NC(=S)Nc2ccc(Cl)c(C(=O)O)c2)c1 | 30 | -3 | / | / | / | -12 | / | -2.9 | 10 | /
COCCNC(=O)Cn1cnc2sc(C)c(S(=O)(=O)N3CCC(C)CC3)c2c1=O | -22 | 2 | / | / | / | -4 | / | 5.9 | 18 | /
O=C(CCC1CCCC1)NNC(=O)COc1ccc(Br)cc1 | -2 | 4 | 9 | 16 | 2.7 | / | i | / | / | -1.3
Cc1ccc(-n2c(SCC(N)=O)nc3c([nH]c4ccccc43)c2=O)cc1 | -2 | 2 | 2 | 1 | -4.2 | 1 | i | -17 | -2 | -1.1
CC(C)C(=O)Nc1nnc(S(=O)(=O)N2c3ccccc3CC2C)s1 (stereo not drawn) | -3 | 2 | 12 | 11 | 0.1 | -16 | i | -2.2 | -5 | -10
Cc1ccc(NC(=O)N2CCC(NC(=O)C(C)(C)C)CC2)cc1 | -4 | -1 | / | / | / | -11 | / | -1.8 | -12 | /
O=C(C1=C[C@H](C2CC2)C[C@H](OCc2ccc(CO)cc2)O1)N1CCOCC1 | -15 | -6 | 1 | 18 | -5.5 | -6 | i | -4.8 | -27 | -3.1&-1.0
O=C1CC(N2CCC(c3nc4ccccc4[nH]3)CC2)C(=O)N1Cc1ccccc1 (stereo not drawn) | -14 | / | / | / | / | 7 | / | -1.1 | 34 | /
CC(=O)N1CCN=C1SCc1c(F)cccc1Cl | 98* | / | -1 | 0 | 3.8 | -11 | i | 0.9 | -3 | -1.3
O=C(O)CC1S/C(=N/N=C/c2ccc(-c3ccc(Cl)cc3[N+](=O)[O-])o2)NC1=O (stereo not drawn) | 82* | -17 | / | / | / | -15 | / | 1.4 | -11 | /
COc1ccc(-c2[nH]c(-c3ccc(F)cc3)nc2SCC(=O)NC2CCCC2)cc1 | 31 | 18 | -2 | -43 | 14 | 19 | i | -1.3 | 28 | 9.3
CN(CC(=O)Nc1ccc2c(c1)OCO2)S(=O)(=O)c1cccs1 | -12 | -3 | 3 | 4 | 1.7 | -4 | / | -1.0 | -6 | 4.0
CC1=CC(C)(C)N(C(=O)CN2C(=O)CCC2=O)c2ccc(C)cc21 | -9 | -9 | 8 | 11 | -7.8 | -6 | i | 0.6 | -4 | 0.1
COC1CCN(C(=O)c2ccc3oc(C(C)C)nc3c2)CC1 | 0 | -4 | 5 | 8 | -1.6 | -7 | i | -2.4 | 1 | -1.1
COc1cc(OC)c(OC)cc1/C=N/NC(=O)CC1C(=O)NN=C1C (stereo not drawn) | 11 | -6 | / | / | / | -18 | / | 1.8 | -4 | /
COc1ccc(C(=O)COC(=O)CCc2ccccc2)cc1 | -6 | -4 | -17 | -5 | 1.0 | -8 | i | 7.4 | 7 | -1.0
O=C(C1CCCN(S(=O)(=O)c2ccccc2[N+](=O)[O-])C1)N1CCCC1 (stereo not drawn) | 0 | -7 | 6 | 9 | 0.7 | 0 | i | 1.3 | -5 | -0.7
NC(=O)C1CCN(C(=O)Cn2cccc2C(=O)c2ccccc2)CC1 | 0 | -3 | / | / | / | -4 | / | 1.2 | -6 | /
Cc1cc(C(=O)CSc2nnnn2-c2ccc(O)cc2)c(C)n1Cc1ccc2c(c1)OCO2 | / | 2 | / | / | / | 48 | / | 7.1 | 8 | /
O=C(NN=C1CCN(Cc2ccccc2)CC1)c1cc(Br)ccc1O | ? | -1 | -11 | -13 | -2.2 | -14 | i | 3.1 | -24 | -0.2
c1ccc2c(c1)OCC(c1nn3c(Cn4nnc5ccccc54)nnc3s1)O2 (stereo not drawn) | -4 | 6 | -14 | -29 | 25 | / | i | -2.7 | -13 | -35
